HPGD inh: HPGD (human) dehydrogenase inhibition; purified HPGD, NADH fluorescence kinetic, PGE2 substrate; Potency, µM, for inactives: top-dose activity change, negative = inhibition, usual class: inhibitors; 150,000 compounds, 4.3% hits; active = well fitted inhibition curve with a large enough effect (not every such curve was filed as active); inconclusive = small, poorly fitted or top-dose-only effect, or another doubt; inactive = no such curve, though single readings can be large or run the other way;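 also: top concentration of the series not given in the record; plate controls included wells without enzyme; inactives centre near -10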
Target sequence (P15428 whole entry, looked up): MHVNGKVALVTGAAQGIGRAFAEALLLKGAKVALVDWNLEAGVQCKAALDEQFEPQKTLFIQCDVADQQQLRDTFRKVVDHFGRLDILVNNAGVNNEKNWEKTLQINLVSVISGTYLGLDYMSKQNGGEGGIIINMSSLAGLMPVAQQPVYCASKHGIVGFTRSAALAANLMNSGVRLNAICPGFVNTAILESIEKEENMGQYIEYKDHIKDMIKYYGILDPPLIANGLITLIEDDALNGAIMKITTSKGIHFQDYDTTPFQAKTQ
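20 nM HPGD preincubated 15 min at room temperature with compound in 50 mM Tris-HCl pH 8, 0.01% Tween 20. Started with 1 mM NAD+ and 30 uM prostaglandin E2; NADH fluorescence (360/450 nm) read 5 times over 30-s intervals, last minus first.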
An asterisk follows results filed as active; ? = inconclusive. % is scaled to controls: 0 for no effect and ±100 for the full control effect; potency is read from the fitted curve at half-maximal effect. This is a subset; the hit share may differ from the screen's.

molecule,HPGD inh
COc1ccc(CCNC(=O)CCCn2c(=O)[nH]c3cc(OC)c(OC)cc3c2=O)cc1OC,-3.3%
Cc1ccc(N2N=C(c3ccc(Br)cc3)CCC2=O)cc1,-7.1%
Cc1ccc(CNC(=O)CS(=O)CC(=O)O)cc1 (stereo not given),-12.4%
COc1cccc(C(O)c2cnc(C(C)C)n2C)c1OC (stereo not given),-5.4%
CCCN1CCN(C(=O)c2cc3c(s2)-c2ccccc2S(=O)(=O)C3)CC1,-12.2%
CN(c1ccc(C(=O)Nc2ccccc2C(=O)N2CCOCC2)cc1)S(C)(=O)=O,0.6%
CC(=O)c1n[nH]nc1NC(=O)c1ccccc1,-1.5%
COc1ccc(CCC(=O)Nc2ccc(C)c([N+](=O)[O-])c2)cc1,12.6µM*
COc1ccc(N2CC(C(=O)NCc3cccnc3)CC2=O)cc1 (stereo not given),-9.7%
Cc1ccc(-c2nc(C)sc2CC(=O)O)cc1,-7.0%
Clc1ccc(Cn2nc(-c3ccccc3)nc2-c2ccccc2)cc1,-19.3%
CCCCC[C@H](O)/C=C/[C@H]1OC(=O)C[C@H](O)[C@@H]1C/C=C\CCCC(=O)O,-7.4%
O=C(COC(=O)CCS(=O)(=O)c1ccc(Cl)cc1)NC1CCCCC1,-20.7%
C#CCn1c(S(=O)(=O)Cc2ccc(C)cc2)nc(-c2ccccc2)c1-c1ccccc1,-18.5%
O=C(O)c1ccc(N/N=C/c2cccc(F)c2)cc1,?
Cc1cc(C)n(-c2nc(SCC(=O)N3CCCC3)c3c4c(sc3n2)CCCC4)n1,-12.8%
Clc1cccc(C=NC=Nc2cccc(Cl)c2)c1,-2.4%
Cc1ccc2[nH]c3c(c2c1)CCc1cn[nH]c1-3,-12.7%
COc1ccc2c(c1)C(=O)CC(c1ccccc1F)O2 (stereo not given),-29.8%
CC(=O)OCc1cc(=O)n(C)c(=O)n1C,-2.5%
COc1ccc(-c2noc(C)c2-c2ccc3ccccc3n2)c(O)c1,-10.7%
CC1CCN(C(=O)CSc2nc(N)cc(N)n2)CC1,15.8µM*
Cc1cc(C)c(S(=O)(=O)Nc2ccccc2C(=O)O)cc1C,?
O=C(C1CCCCN1S(=O)(=O)c1ccccc1)N1CCCCC1 (stereo not given),-15.5%
CCCC/C(O)=N\S(=O)(=O)c1ccc(N=NN(C)C)cc1,-12.5%

Compounds from the list above that contain fluorine:
molecule,HPGD inh
O=C(O)c1ccc(N/N=C/c2cccc(F)c2)cc1,?
COc1ccc2c(c1)C(=O)CC(c1ccccc1F)O2 (stereo not given),-29.8%

(next part)
molecule,HPGD inh
Fc1cccc(CN2CCN3CCCC3C2C2CCCCC2)c1 (stereo not given),-11.2%
CCOC(=O)C1=C(C)Nc2sc(C(=O)c3ccc(Br)cc3)c(N)c2C1c1ccc(C(=O)OC)cc1 (stereo not given),-7.2%
CCCCNC(=O)Cn1c(=O)n(C)c2ccccc21,-10.8%
CNC(=O)CN(c1cc(C)ccc1OC)S(=O)(=O)c1ccc(C)cc1,-10.7%
O=c1cc(-c2ccc([N+](=O)[O-])cc2)nc2cc(-c3ccc(Cl)cc3)[nH]n12,-9.4%
CC(C)Sc1nc2ccc(N3C(=O)C4CCCCC4C3=O)cc2s1 (stereo not given),-8.9%
CCSc1nnc(Cn2c(=O)sc3ccccc32)n1C,-10.5%
CCCNC(=O)c1cnc(Sc2ncc(C(F)(F)F)cc2Cl)n1C,-9.9%
CCOC(=O)N1CCC(NC(=O)C(Cc2ccccc2)NC(=O)C2CCCCC2)CC1 (stereo not given),-12.0%
O=C(COC(=O)CNS(=O)(=O)c1c(Cl)cccc1Cl)Nc1cccnc1Cl,-6.0%
CC(=O)c1c(C)[nH]c(C(=O)NCc2ccc(C)cc2)c1C,-3.9%
N#C/C(=C\c1cccs1)C(=O)NCc1ccco1,-13.7%
CCc1cccc(C)c1NC(=O)c1cccc(N(C)C)c1,14.1µM*
CCN(CC)c1ccc(C2NCC(c3ccc([N+](=O)[O-])cc3)O2)cc1 (stereo not given),-11.0%
O=C(c1ccc(Cl)cc1)c1c[nH]cc1-c1ccccc1,-6.3%
COc1ccc(-c2noc(-c3ccccc3C(=O)N3CCOCC3)n2)cc1,-4.4%
CCCCn1cnc2c(cnn2-c2ccc(F)cc2)c1=O,-14.9%
Cc1nnc(SCC(=O)Nc2ncc(Cl)cc2Cl)n1Cc1ccccc1,-14.2%
CCOc1ccc(-n2c(SCc3ccc(C#N)cc3)nnc2-c2cccnc2)cc1,-0.2%
CCCCNCC(=O)Nc1ccc(NC(=O)CNCCCC)cc1,-6.1%
Cc1ccc(S(=O)(=O)C(CCC(=O)c2ccc(Cl)cc2)C(N)=O)cc1 (stereo not given),-11.3%
CCc1n[nH]c2c1/C(=N/O)CCC2,-1.4%
Cc1ccc2c(CC(=O)OCc3csc(C)n3)coc2c1,-9.9%
CCCn1nnc(NC(=O)c2ccc(-c3ccccc3)cc2)n1,-4.8%
CCOC(=O)c1ccc(CSc2nnc(N)s2)cc1,-3.2%

An excerpt from above in order of count of non-hydrogen atoms, smallest number first.
molecule,HPGD inh
CCc1n[nH]c2c1/C(=N/O)CCC2,-1.4%
CCOC(=O)c1ccc(CSc2nnc(N)s2)cc1,-3.2%
CCN(CC)c1ccc(C2NCC(c3ccc([N+](=O)[O-])cc3)O2)cc1 (stereo not given),-11.0%

Next section
molecule,HPGD inh
Cc1cc(NCCCn2ccnc2)n2nc(-c3ccc(F)cc3)cc2n1,?
CCNc1nc(-c2ccc(Cl)cc2)cs1,-20.7%
CC(=O)OC1CC(OC(C)=O)[C@]2(C)C(CC(OC(C)=O)[C@@]3(C)C4=CC(=O)OC(c5ccoc5)[C@]4(C)CCC32)C1(C)C (stereo not given in full),18.0%
O=C1CC(c2ccco2)Sc2nc3ccccc3n21 (stereo not given),-13.3%
COc1ccc(CN(C)CC(=O)NC(=O)NCc2ccccc2)c(OC)c1,0.9%
Cc1ccc(OCCOCCNC(C)C)c(Br)c1,0.0%
O=C(CSc1nnc(COc2ccc(Cl)cc2)o1)OC1CCCCC1,-9.2%
COC(=O)c1cn(-c2ccccc2)nc1-c1ccncc1,-7.1%
Cc1ccc(OCC(=O)NN2C(=O)c3ccccc3C2=O)c(C)c1,-9.2%
CCN(CC)S(=O)(=O)c1cc(NC(=O)C(C)OC(=O)c2[nH]c(C)c(C(C)=O)c2C)ccc1C (stereo not given),-28.5%
Cc1ccc(SCC(=O)N2c3ccccc3Sc3ccccc32)cc1,-21.8%
CCN(CC)CCCNC(=O)c1nn(-c2cccc(OC)c2)c(=O)c2ccccc12,-4.2%
COC(=O)[C@H](CCSC)NC(=O)N1CCN(c2cccc(C(F)(F)F)c2)CC1,-2.4%
CN(C)S(=O)(=O)c1cccc(-c2nnc(-c3ccccc3)o2)c1,-15.4%
COc1cccc(/C=N/Nc2ncnc3scc(-c4ccccc4)c23)c1OC,17.8µM*
Cc1cc(NC(=O)c2ccco2)no1,-4.0%
O=c1[nH]c2c(cc1CNCCN1CCOCC1)c(-c1cccc(F)c1)nn2-c1ccccc1,?
CCn1c(-c2cccnc2Cl)nc2cc(Cl)c(Cl)cc21,-15.9%
COc1ccc(C(NC(=O)/C=C/c2ccco2)c2ccc(OC)cc2)cc1,?
COc1cccc(-c2noc(Cn3nc(C)c([N+](=O)[O-])c3C)n2)c1,25.1µM*
CN(C)CCCNc1cc(O)c2c(c1O)C(=O)c1ccccc1C2=O,-7.3%
COc1ccc(C(=O)COC(=O)CN2CC(=O)Oc3ccccc32)cc1Br,-4.1%
Cc1nonc1NC(=O)CSc1nc2cc(Cl)ccc2c2c1CCCC2,-9.0%
COC(=O)c1ccc(/C=N\N2CCN(Cc3ccc(C)cc3)CC2)cc1,-16.0%
O=C(COc1ccc(C(=O)c2ccc(F)cc2)cc1)NCc1ccc(F)cc1,-17.1%

The last 4 compounds of the part above are carried over, then new ones follow.
molecule,HPGD inh
COc1ccc(C(=O)COC(=O)CN2CC(=O)Oc3ccccc32)cc1Br,-4.1%
Cc1nonc1NC(=O)CSc1nc2cc(Cl)ccc2c2c1CCCC2,-9.0%
COC(=O)c1ccc(/C=N\N2CCN(Cc3ccc(C)cc3)CC2)cc1,-16.0%
O=C(COc1ccc(C(=O)c2ccc(F)cc2)cc1)NCc1ccc(F)cc1,-17.1%
COc1ccc(CCNC(=O)CCN2C(=O)COc3ccccc32)cc1OC,-0.5%
COc1ccc(NC(=O)N2CCCC3(CCN(C(=O)c4cnccn4)CC3)C2)cc1,-1.8%
CCN(CC)S(=O)(=O)c1ccc2[nH]cc(C(=O)NCCc3ccc(OC)c(OC)c3)c(=O)c2c1,-13.6%
Cc1c(Cl)cccc1NC(=S)NCC(C)C,-14.9%
CCOC(=O)c1sc(NC(=O)CN2CCCC2)c(C(=O)OCC)c1C,-6.4%
O=C(Cc1ccccc1F)Nc1nc(-c2cccs2)cs1,-21.2%
Cc1ccc2nc(-c3ccc(NC(=O)Cc4cccs4)cc3)[nH]c2c1,?
CN(C)N1C(N)=C(C#N)C(c2cccnc2)C2=C1CCCC2=O (stereo not given),-8.8%
CC1C=CC(C)C(C(=O)O)C1C(=O)O (stereo not given),-1.9%
COc1cc(C(=O)CSc2nnc(-c3ccc(O)cc3)n2CC2CCCO2)ccc1NC(C)=O (stereo not given),-4.2%
Cc1nnc(C)n1/N=C/c1ccc(C(=O)O)cc1,-14.2%
O=C(Nc1cccc(-c2cc3ccccc3oc2=O)c1)c1ccc(Br)o1,?
COc1ccc(-c2cc(C3CCN(c4ccc(C(C)=O)cc4[N+](=O)[O-])CC3)[nH]n2)cc1,-12.5%
Fc1ccc(-c2csc3[n+]2CCS3)cc1,2.4%
Nc1nc(-c2ccc(Br)cc2)cc(C(F)(F)F)n1,-17.6%
c1ccc(CN2CCN(c3ncnc4c3[nH]c3ccccc34)CC2)cc1,-18.8%
N=c1c2c(-c3ccccc3)c(-c3ccccc3)oc2ncn1CCN1CCOCC1,?
Cc1c(Cl)cccc1NC(=O)CSc1nc2c(c(=O)[nH]1)CCCC2,-13.7%
COc1ccc(S(=O)(=O)N2CCC(=O)N2)cc1,-5.9%
O=C(CSCc1cccc(CSCC(=O)Nc2ccc3ccccc3c2)n1)Nc1ccc2ccccc2c1,-19.2%
Cc1ccc2occ(/C=C/C(=O)O)c(=O)c2c1,-15.7%
COc1ccc(S(=O)(=O)N2CCCCCC2)cc1N(C)S(=O)(=O)c1ccc(Cl)cc1,-11.9%
CC(C)(C)NC(=O)COc1ccc(CNc2ccc3[nH]c(=O)[nH]c3c2)cc1,?
Cc1ncoc1C(=O)NCc1ccccc1Cl,5.9%
COc1ccc(-c2cc(C3CC3)nc(SCC(=O)c3cccs3)c2C#N)cc1,2.3%
CC(C)(C)C1CCc2c(sc(NC(=O)c3ccco3)c2C(N)=O)C1 (stereo not given),?
COc1ccc(CCN(Cc2cccs2)S(=O)(=O)c2ccc(S(=O)(=O)N3CCC(C)CC3)cc2)cc1OC,-1.4%
COc1cc(OC)c2c(c1)C(=O)OC2,-20.3%
O=C(NCCc1ccccc1)/C(=C/c1ccco1)c1ccccc1,-25.2%
COc1c2ccoc2nc2c(OC)c(O[C@@H]3O[C@H](C)[C@@H](O)[C@@H](O)[C@H]3O)ccc12,?
N=C(N)SCc1cc(Cl)cc(Cl)c1O,-4.6%
O=C(Cc1ccc(Cl)cc1)Nc1ccc(N2CCN(C(=O)c3ccco3)CC2)c(Cl)c1,-21.3%
COc1ccc(S(=O)(=O)NCc2ccc(C)cc2)cc1,-4.6%
COc1ccc(NC(=O)CCC(=O)c2ccc(-c3ccccc3)cc2)cc1,0.1%
CCOC(=O)c1sc(NC(=O)CCN2C(=O)c3cccc([N+](=O)[O-])c3C2=O)c(C(=O)OCC)c1C,-7.4%
CCOC(=O)c1sc(NC(=O)CSc2ccccn2)c(C#N)c1C,0.7%
c1ccc(-c2nnc(SCc3nc4ccccc4[nH]3)n2Cc2ccco2)nc1,-11.1%
Fc1ccc(-n2c(-c3cccs3)nc3nc4ccccc4nc32)cc1,?
O=C(Cc1coc(-c2ccc(F)cc2)n1)Nc1ccccc1,-7.7%
CCOC(=O)C1CCN(C(=O)CNS(=O)(=O)c2cccs2)CC1,7.7%
O=C(COC(=O)c1cnccn1)c1ccc2c(c1)CCCC2,-12.0%
O=C(CCCN1C(=O)c2ccccc2C1=O)Nc1cccnc1,-13.9%
C=CCNS(=O)(=O)c1ncnc2nc[nH]c12,-5.0%
Cc1ccc(NCc2nnc3n2CCCCC3)cc1,-26.8%
Clc1cccc(N2CCN(CCNc3nc4ccccc4n4cnnc34)CC2)c1,-8.4%
Cc1ccccc1OCC(=O)NNC(=O)CN1C(=O)c2ccccc2C1=O,0.9%
COC/C=C/C1=CC2=CC(=O)C(C)(OC(=O)c3cnc4ccccc4n3)C(=O)C2=CN1CCOC (stereo not given),5.1%
COC(CNC(=O)C1CCCCC1C(=O)O)OC (stereo not given),0.4%
Cc1oc(-c2ccccc2)cc1C(=O)Nc1cccc2ccccc12,?
O=C(COc1ccc(S(=O)(=O)NCc2ccccc2)cc1)NCC1CCCO1 (stereo not given),-9.7%
CC(=O)NC(NC(C)=O)c1ccc(Br)cc1,-7.5%
O=[N+]([O-])c1cc(S(=O)(=O)C(F)(F)F)ccc1Sc1nc2ccccc2[nH]1,-3.5%
Cc1ccc(NC(=O)CN(C)C(=O)CCC(=O)c2cccs2)cc1,2.4%
